HNF4A DNA FP – change in binding of human HNF4A to DNA, primary screen, biochemical, fluorescence polarization, FITC-DNA; Hepatocyte nuclear factor 4-alpha (Homo sapiens), P41235; 1 h; activity change, % at 10 µM; 360,000 compounds, 0.3% hits; AID 1224865, 2016; in the data active = activity change above about 30%, passing the limit was not always enough;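 note: controls were the assay level and a saturating level of protein; the project sought stronger binding though the title names inhibitors; some compounds called inactive have numbers as strong as hits; positive values seem to mean higher polarization but the record does not say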
Target sequence (P41235 whole entry, looked up): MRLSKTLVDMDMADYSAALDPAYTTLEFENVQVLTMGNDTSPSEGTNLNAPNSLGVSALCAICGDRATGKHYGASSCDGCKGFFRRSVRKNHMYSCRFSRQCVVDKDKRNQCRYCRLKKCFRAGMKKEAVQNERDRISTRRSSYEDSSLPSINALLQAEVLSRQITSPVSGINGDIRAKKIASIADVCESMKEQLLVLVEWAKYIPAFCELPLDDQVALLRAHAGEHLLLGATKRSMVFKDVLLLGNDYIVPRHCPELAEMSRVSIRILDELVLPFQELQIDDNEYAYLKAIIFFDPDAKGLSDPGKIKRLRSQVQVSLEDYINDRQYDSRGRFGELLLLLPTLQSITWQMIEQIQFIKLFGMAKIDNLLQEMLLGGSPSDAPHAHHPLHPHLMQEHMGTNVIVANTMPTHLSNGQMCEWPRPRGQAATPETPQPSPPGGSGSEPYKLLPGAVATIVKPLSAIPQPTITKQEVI
Numbers without * were called inactive.

SMILES	HNF4A DNA FP
Cc1ccc(-c2ccc(CN3C(C(C)C)C(=O)N(Cc4cn(Cc5ccco5)nn4)CCS3(=O)=O)cc2)cc1 (stereo not given)	-1.8
CN(CC(=O)Nc1cccc(S(=O)(=O)N(C)c2ccccc2)c1)Cc1cccs1	0.0
CC(C)C(=O)N1CCCC1(C)C(=O)N(C)Cc1cccc2ccccc12 (stereo not given)	0.7
COC(=O)C[C@@H]1C=C[C@H](NC(=O)Nc2cc(F)ccc2F)[C@@H](CO)O1	-0.8
CC(NS(=O)(=O)c1cc2c3c(c1)CCN3C(=O)CC2)c1ccccc1 (stereo not given)	-0.4
CSCCC(c1nc2ccccc2[nH]1)n1c(-c2cc(C(F)(F)F)cc(C(F)(F)F)c2)nc2ccccc21 (stereo not given)	0.9
COC(=O)C(C(=O)OC)c1ccccc1NC(=O)OCc1ccccc1	0.2
O=S(=O)(Nc1nc(-c2ccco2)c(-c2ccco2)s1)c1ccc(F)cc1F	-9.0
OC(c1cccc(Cl)c1)c1ncc(-c2ccc3ccccc3c2)[nH]1 (stereo not given)	1.6
COc1cc(-c2cc3nc(NCCOc4ccccc4)ccn3n2)cc(OC)c1OC	4.5
Cn1c(NCc2cccnc2)nc2cc(-c3cccc(C(F)(F)F)c3)sc2c1=O	2.4
COc1ccc2c3c(n(C(=O)OC(C)(C)C)c2c1)C1CC=C(COC(C)=O)CN1CC3 (stereo not given)	-5.0
COCCCNc1ccn2nc(-c3ccc(OCCN4CCOCC4)cc3)cc2n1	4.0
COc1cccc(C(=O)NCCS(=O)(=O)N2CCCC(C)C2)c1 (stereo not given)	0.7
CN(C)C(=O)c1cccc(-c2cccc(-c3nc(C(=O)NCc4ccccc4)cc4c3[C@@H](CCO)N(S(=O)C(C)(C)C)C4)c2)c1 (stereo not given in full)	0.5
CC(=O)c1cc2cccc(OC3(C)CCN(Cc4ccc(-c5ccccn5)cc4)C3)c2o1 (stereo not given)	-1.7
COc1cc(-c2cc3nc(NCc4cccs4)ccn3n2)cc(OC)c1OC	8.2
CCNC(=O)c1cc2c(c(-c3cccc(-c4cccc(C(=O)N(C)C)c4)c3)n1)[C@@H](CCO)N(S(=O)C(C)(C)C)C2 (stereo not given in full)	19
O=C(Nc1ccc(F)c(Cl)c1)c1cc(C2CCCCN2C(=O)c2cccs2)on1 (stereo not given)	-2.5
OC(c1ccc(F)c(F)c1)c1ncc(-c2ccc(Cl)cc2)[nH]1 (stereo not given)	-1.9
O=C(NCc1cccs1)c1ccc2sc([C@H]3C[C@H](O)[C@@H](CO)O3)nc2c1	1.8
COc1ccccc1C#Cc1cnc2c(c1)C(=O)N([C@H](C)CO)C[C@H](C)[C@@H](CN(C)S(=O)(=O)c1cn(C)cn1)O2	1.6
COc1ccc(NC(=O)C2(C)CCN2C(=O)C(C)C)cc1F (stereo not given)	-4.0
CC1(C(=O)NCc2cccs2)Cc2c(-c3ccc(C(N)=O)cc3)ccnc2O1 (stereo not given)	-6.0
O=C(Cn1cc(COc2ccc(Cl)c(Cl)c2)nn1)NS(=O)(=O)c1ccccc1OC(F)(F)F	-5.4
COc1cccc(-c2cnc3c(NC(C)=O)cc(-c4cccc(C(=O)NCCN(C)C)c4)cn23)c1	10
CCc1nc2ccc(C(=O)NCCOc3ccc(OC)cc3)cn2c1N(CC)Cc1ccc(OC)c(OC)c1	1.1
CN1CCCCC1(C)C(=O)NCc1ccc(C(C)(C)C)cc1 (stereo not given)	2.9
CCNC(=O)c1cc2c(c(-c3cccc(-c4ccccc4F)c3)n1)[C@@H](CCO)N(C(=O)CC)C2	3.7
N#Cc1ccc(C(C(=O)NC2CCCCC2)n2c(=O)c(-c3ccccc3)nc3ccccc32)cc1 (stereo not given)	-2.5
CN(NC(=O)C(=O)NCc1ccco1)C(=O)Nc1ccc(Cl)cc1	3.3
CN(C)CCN1CCN(C2CN(CCc3ccccc3)S(=O)(=O)C2)CC1 (stereo not given)	0.3
O=c1[nH][nH]c2c1[C@H](c1ccc(F)cc1)O[C@H](CCC(F)(F)F)C2	-1.9
O=C(NCCNC(=O)c1ccc(Cl)cc1Cl)c1ccc(Cl)cc1Cl	1.9
O=C(Nc1ccc(Oc2ccccc2)cc1)c1csc([C@H]2C[C@H](O)[C@@H](CO)O2)n1	2.3
CCCCN(C)c1c(C)nc2ccc(C(=O)N(C)Cc3ccco3)cn12	2.2
Fc1ccc(CNc2ccn3nc(-c4ccccc4)cc3n2)cc1	1.1
CCc1ccc(NC(=O)CCCOc2cc(=O)n(C)c3ccccc23)cc1	3.6
COc1ccc(CCCNC(=O)C2Cc3c(-c4ccccc4)ccnc3O2)cc1 (stereo not given)	1.1
CC(C)c1ccc(CNc2nc(NCC3CC3)nc3ccsc23)cc1	4.3
COc1ccc(C(C)(O)c2nc(/C=C/c3ccccc3)cs2)cc1 (stereo not given)	-2.5
CC1(C(=O)NS(=O)(=O)c2cccc(C#N)c2)CCN1C(=O)CCC1CCCC1 (stereo not given)	0.6
COc1ccc(Cn2cc(CN3CC(N4CCN(CCN(C)C)CC4)CS3(=O)=O)nn2)cc1 (stereo not given)	1.1
COc1ccc(N2C(=O)CC(Sc3nccc(C)n3)C2=O)c(OC)c1 (stereo not given)	0.9
O=C(C(=O)N1CCN(C(=O)c2ccco2)CC1)c1ccccc1	-0.6
CCCC(=O)N(Cc1cc2cc(OC)ccc2[nH]c1=O)c1ccccc1OC	0.3
CC(C)(C)S(=O)N1Cc2cc(C(=O)NCC(F)(F)F)nc(-c3cccc(-c4cccc(F)c4)c3)c2[C@H]1CCO (stereo not given in full)	2.5
O=C(NC1CCCC1)C1c2ccccc2OCC(=O)N1C1CC1 (stereo not given)	4.6
CC(=O)OC[C@@H]1CN(Cc2ccccc2)C[C@H](n2cnc3c(NC4CC4)ncnc32)O1	-0.6
CCOC1=C2[C@H](c3cccc(Cl)c3)N(S(=O)(=O)c3ccc(C)cc3)C[C@H]2n2c(=O)n(-c3ccccc3)c(=O)n2C1	4.0
COC(=O)c1ccc2nc(-c3ccco3)c(Cc3ccccc3C(F)(F)F)n2c1	6.9
COc1ccc(C(c2nnnn2C2CCCC2)N2CCN(C/C=C/c3ccccc3)CC2)cc1 (stereo not given)	5.5
O=C(NCc1ccc(F)cc1F)[C@@H]1CCCN1C(=O)[C@@H]1CCCN1C(=O)c1ccccc1	-5.1
CC(=O)c1ccc(Nc2nc(C(N)COCc3ccccc3)cs2)cc1 (stereo not given)	5.7
COC(=O)c1ccc2nc(-c3ccco3)c(Cc3cccc(F)c3)n2c1	11
FC(F)C(F)(F)Oc1cccc(Nc2nccn3c(-c4cc(C(F)(F)F)cc(C(F)(F)F)c4)cnc23)c1	9.4
COc1ccc(S(=O)(=O)NC(=O)C2(C)CCN2C(=O)Cc2cc(F)ccc2F)cc1 (stereo not given)	-0.3
CCOC(=O)C1=CC[C@@H](c2cccc(Br)c2)N(S(=O)(=O)c2ccc(F)cc2)[C@H]1c1cccc(Cl)c1	-2.5
Cc1ccccc1CN1C(=O)CN(S(C)(=O)=O)CC1(C)C(=O)Nc1c(C)cccc1C (stereo not given)	1.5
CCNC(=O)C1(C)CCCN(Cc2cccc(Oc3ccccc3)c2)C1 (stereo not given)	1.9

The list continues:
SMILES	HNF4A DNA FP
CCOC(=O)C1=CCN(S(=O)(=O)c2ccccc2F)C1c1cccc(F)c1 (stereo not given)	5.6
CC(=O)Nc1ccc(S(=O)(=O)NCc2ccc(C(=O)NCCN(C)Cc3ccccc3)cc2)cc1	4.4
CC(C)NC(=O)C1(C)CN(S(C)(=O)=O)CC(=O)N1Cc1ccco1 (stereo not given)	0.2
O=C(OCc1ccccc1)N1CCC2CC1c1cc(N3CCN(S(=O)(=O)c4cccc5ccccc45)CC3)ccc12 (stereo not given)	-3.7
C[C@@H]1CCCCO[C@H](CN(C)C(=O)Nc2ccccc2)[C@@H](C)CN([C@H](C)CO)C(=O)c2cc(NS(=O)(=O)c3cn(C)cn3)ccc2O1	-3.7
Cc1cc(Nc2ccc(C)c(C)c2)n2ncnc2n1	-0.1
CCNC(=O)C1(C)CCN(C(=O)c2cccc(OC(F)(F)F)c2)C1 (stereo not given)	0.1
COCCNC(=O)C1(C)CCCN(C(=O)CCc2ccccc2)C1 (stereo not given)	2.6
COc1ccc(-c2cnc3c(NC(C)=O)cc(-c4ccsc4)cn23)cc1OC	17
CCOC(=O)[C@]12CCC=C1N(Cc1cccc3ccccc13)C(=O)[C@H](CC(=O)NCCCN1CCCC1=O)C2	-3.8
COc1ccccc1CNc1nc(NCCOc2ccccc2)c2sccc2n1	3.9
Nc1ncnc2c1ncn2[C@@H]1O[C@H](C(=O)N2CCN(c3nc4ccccc4o3)CC2)[C@@H](O)[C@H]1O	4.4
CC1(C(=O)NCc2cccs2)Cc2c(-c3ccc4c(c3)OCO4)ccnc2O1 (stereo not given)	-0.2
COc1ccc(-c2nc3ccc(C)cn3c2Cc2ccc(C)cc2)cc1OC	1.1
CC1=C(C(=O)N2CCOCC2)CC(CC(=O)NCc2cccs2)C(=O)N1CCCN1CCCC1=O (stereo not given)	3.9
O=C(NCc1cccc(F)c1)Nc1nnc([C@H]2C[C@H](O)[C@@H](CO)O2)s1	-0.7
CC1CCCN(S(=O)(=O)c2ccc3c(c2)OCCO3)C1 (stereo not given)	0.0
Cc1ccc(S(=O)(=O)N2C[C@H]3C(=O)C[C@@H](c4ccccc4)N(S(=O)(=O)c4ccccc4C)[C@H]3C[C@H]2c2ccccc2)cc1	-3.1
COCCNC(=O)c1ccc(-c2cn[nH]c2)c2ccoc12	-1.0
C=C1C(=O)[C@]23C[C@H]1CCC2[C@@]1(C)C(C[C@@H]3O)[C@](C)(C(=O)OC)CC[C@@H]1OC(C)=O (stereo not given in full)	0.1
OC[C@@H]1CN(Cc2ccc3c(c2)OCO3)C[C@H](n2cnc3c(NCc4ccncc4)ncnc32)O1	5.8
Cc1noc(C)c1S(=O)(=O)N(C)C[C@H]1OCc2cn(nn2)CCCC(=O)N([C@@H](C)CO)C[C@@H]1C	2.2
CC(C)Nc1ncnc2c1ncn2[C@H]1CN(C2CCCC2)C[C@@H](CO)O1	-0.8
CC[C@@H]1Cc2[nH][nH]c(=O)c2[C@@H](c2ccc(F)cc2)O1	0.7
CCCCC(=O)N(C)c1c(CC)nc2c(OCc3ccccc3C)cccn12	2.1
O=c1n2c(c(O)n1C1CCCCC1)C(c1ccccc1)=Nc1ccccc1C2	0.6
COc1ccccc1CNC(=O)c1cc(-c2ccc(F)cc2C)n[nH]1	2.5
COc1cc(-c2cc3nc(NCc4ccco4)ccn3n2)cc(OC)c1OC	1.3
CCCNC(=O)C1(C)CCCN(CCC(=O)c2ccccc2)C1 (stereo not given)	-1.4
COc1ccc(-c2cc(C(=O)NCc3cccc(Cl)c3)[nH]n2)c(C)c1	2.5
CC(=O)NC(c1ccco1)c1cc(Cl)c2cccnc2c1O (stereo not given)	3.1
COc1ccc(-c2nc3c4ccccc4ccn3c2Cc2ccsc2)cc1OC	1.1
CC(C)(C)OC(=O)N1CCC[C@H]1C(=O)N1CCC[C@H]1C(=O)NCc1ccc(F)cc1F	-0.8
COc1cccc(C(NC(C)=O)c2nc(-c3cccnc3)cs2)c1 (stereo not given)	1.8
C[C@H](CO)N1C[C@H](C)[C@@H](CN(C)C(=O)Nc2cc(F)ccc2F)Oc2ncc(-c3cccc(F)c3)cc2C1=O	1.1
CC(C)C[C@H]1CN([C@@H](Cc2ccccc2)CN2CCC[C@H]2CN2C(=O)C(=O)NC[C@@H]2Cc2ccc(O)cc2)C(=O)C(=O)N1CC1CCCCCC1	1.2
CC1(C(=O)NS(=O)(=O)c2ccccc2)CCN1C(=O)C1(c2ccccc2)CCCC1 (stereo not given)	-0.3
CCOC(=O)C(=O)N(C)c1c(CC)nc2c(OCc3ccc(Cl)cc3)cccn12	-1.6
c1ccc(SC23CCCCN(CCC2)C32OCCO2)cc1 (stereo not given)	2.3
CSc1ccc(CNC(=O)C2(C)CCCN2C)cc1 (stereo not given)	2.9
COc1ccccc1N1CCN(Cc2cc(=O)oc3cc(C)cc(C)c23)CC1	-0.8
COc1ccc(C(=O)Nc2c(F)c(F)c(F)c(F)c2F)cc1OC	0.2
CCCc1ccc(C(O)c2ncc(-c3ccccc3)[nH]2)cc1 (stereo not given)	0.6
O=C1NC(Cc2ccccc2)c2nc3cc(F)ccc3c(=O)n2-c2ncccc21 (stereo not given)	1.9
OC[C@@H]1CN(Cc2cccs2)C[C@H](n2cnc3c(NCc4ccncc4)ncnc32)O1	0.6

An excerpt from above in order of formula weight, lowest first.
SMILES	HNF4A DNA FP
CSc1ccc(CNC(=O)C2(C)CCCN2C)cc1 (stereo not given)	2.9
CCCc1ccc(C(O)c2ncc(-c3ccccc3)[nH]2)cc1 (stereo not given)	0.6
c1ccc(SC23CCCCN(CCC2)C32OCCO2)cc1 (stereo not given)	2.3
CCCNC(=O)C1(C)CCCN(CCC(=O)c2ccccc2)C1 (stereo not given)	-1.4
CC(=O)NC(c1ccco1)c1cc(Cl)c2cccnc2c1O (stereo not given)	3.1
COc1ccc(C(=O)Nc2c(F)c(F)c(F)c(F)c2F)cc1OC	0.2
COc1ccc(-c2cc(C(=O)NCc3cccc(Cl)c3)[nH]n2)c(C)c1	2.5
COc1cc(-c2cc3nc(NCc4ccco4)ccn3n2)cc(OC)c1OC	1.3
O=C1NC(Cc2ccccc2)c2nc3cc(F)ccc3c(=O)n2-c2ncccc21 (stereo not given)	1.9
COc1ccc(-c2nc3c4ccccc4ccn3c2Cc2ccsc2)cc1OC	1.1
CCOC(=O)C(=O)N(C)c1c(CC)nc2c(OCc3ccc(Cl)cc3)cccn12	-1.6
CC1(C(=O)NS(=O)(=O)c2ccccc2)CCN1C(=O)C1(c2ccccc2)CCCC1 (stereo not given)	-0.3
CC(C)(C)OC(=O)N1CCC[C@H]1C(=O)N1CCC[C@H]1C(=O)NCc1ccc(F)cc1F	-0.8
OC[C@@H]1CN(Cc2cccs2)C[C@H](n2cnc3c(NCc4ccncc4)ncnc32)O1	0.6
C[C@H](CO)N1C[C@H](C)[C@@H](CN(C)C(=O)Nc2cc(F)ccc2F)Oc2ncc(-c3cccc(F)c3)cc2C1=O	1.1

Source: PubChem (Sanford-Burnham Center for Chemical Genomics)

Some of the compounds tested; the hit share may differ from the screen's.
